CSC inhib: cancer stem cell inhibition; AID 2717; inhibition, % at 7.5 µM; cancer stem cell-like cells viability, luminescence; actives 1.1% (n = 300,000);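 active = mean at 75% or more and at least half the replicates too; inconclusive = mean and replicates disagree; tested in HMLE shEcad cells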;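 also: 0% = median of negative and 100% = median of positive control wells; the first replicate is given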
eIF4H FP inh: inhibitors of RNA binding by human eIF4H; Q15056; eIF4H fluorescence polarization binding assay; inhibition, % at 35 µM; actives 0.94% (n = 290,000); AID 2012;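 active = 50% or more with normal probe brightness, or confirmed in later tests; inconclusive = above 50% with abnormal brightness, or retests that disagree; inactive = below 50% or failed in later tests; about a fifth of its hits are not listed in these tables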;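 also: calls also rest on retests at 20 µM and on dose response follow-up; 0% = protein and probe with vehicle and 100% = probe without protein; strong numbers were not always called active; many hits fall short of the cut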
MT1-MMP act inh: blocks activation of human MT1-MMP; P50281; HT1080 RFP-PRO-GFP cells, GFP/RFP ratio fluorescence, overnight; percent of plate control window, DMSO zero; GFP/RFP ratio change, % at 20 µM; actives 0.061% (n = 360,000); AID 651647;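 active = GFP/RFP ratio change of at least 30% with cell ATP level not reduced by more than half and red fluorescence within 50% of control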; also: strong numbers were not always called active
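system = RFP-PRO-GFP reporter HT1080 cells | dosing = 20 µM single dose, 1% DMSO | timing = overnight cell settling, then overnight compound exposure, 37 °C, 5% CO2 | read-out basis = GFP/RFP fluorescence ratio | controls = DMSO and RFP-L50D-GFP cell wells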
PABP FP inh: PABP-poly(A) binding inhibition. PABP-poly(A) RNA binding, fluorescence polarization. inhibition, % at 35 µM. actives 1% (n = 290,000);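 active = 50% or more with normal probe brightness, or confirmed in later tests; inconclusive = above 50% with abnormal brightness, or retests that disagree; inactive = below 50% or failed in later tests; about a fifth of its hits are not listed in these tables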;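 also: calls also rest on retests at 20 µM and on dose response follow-up; controls were probe without protein and protein plus probe with vehicle; some compounds called inactive have numbers as strong as hits; many hits fall short of the cut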
Target sequence (P11940 whole entry, looked up): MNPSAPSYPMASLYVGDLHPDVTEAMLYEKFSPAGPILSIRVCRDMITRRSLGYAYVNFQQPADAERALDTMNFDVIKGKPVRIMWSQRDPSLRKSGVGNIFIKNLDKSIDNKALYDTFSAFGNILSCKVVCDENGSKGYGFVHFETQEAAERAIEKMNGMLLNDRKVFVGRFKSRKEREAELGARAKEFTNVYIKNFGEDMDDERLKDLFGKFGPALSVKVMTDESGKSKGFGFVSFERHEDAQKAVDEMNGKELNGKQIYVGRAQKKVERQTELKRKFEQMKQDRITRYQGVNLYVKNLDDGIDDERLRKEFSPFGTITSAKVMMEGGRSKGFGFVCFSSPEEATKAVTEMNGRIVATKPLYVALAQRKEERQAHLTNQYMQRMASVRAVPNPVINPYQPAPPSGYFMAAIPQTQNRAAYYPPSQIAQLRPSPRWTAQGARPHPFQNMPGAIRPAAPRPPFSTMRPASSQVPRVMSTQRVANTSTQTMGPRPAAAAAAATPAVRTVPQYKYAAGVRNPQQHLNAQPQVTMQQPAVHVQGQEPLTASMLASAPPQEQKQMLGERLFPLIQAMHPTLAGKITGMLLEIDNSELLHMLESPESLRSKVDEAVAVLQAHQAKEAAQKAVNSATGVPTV
Rce1 inh: yeast Ras-converting enzyme inhibition; yeast membranes, quenched prenylated peptide cleavage fluorescence; actives 0.27% (n = 290,000); Q03530; calls only;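 active = fall in fluorescence gain of 50% or more versus controls, with final raw signal at or below 3038400; inconclusive = same 50% fall but final raw signal above 3038400; inactive = fall in fluorescence gain under 50%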;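 also: plate controls were neutral control wells for no effect and wells lacking membranes for full effect; tested at 10 µM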
Env fusion inh: HIV envelope-mediated fusion inhibition | actives 1.1% (n = 360,000) | HeLa-JRFL Env/CEM21 cell fusion, luciferase | inhibition, % at 12.3 µM;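 active = mean replicate inhibition score of at least 50 and every replicate individually at or above 50; inconclusive = only one of the two criteria met; inactive = mean below 50 and not all replicates reaching 50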;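 also: 0% = plate neutral controls and 100% = maraviroc near 300 nM; one replicate is shown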
UUG fidelity: modulators of start codon recognition fidelity in yeast. AID 602363. actives 0.13% (n = 350,000). activity score, % at 18.7 µM. S. cerevisiae UUG-firefly luciferase reporter, luminescence/redox ratio;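 active = replicate mean at a twofold rise or more, about +100% in these data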;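 also: firefly luciferase made from a UUG start codon reports start codon fidelity; reporter light over untreated wells divided by growth signal over untreated wells; some hits fall short of that in this replicate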
eIF4H FP inh retest: also measured in eIF4H FP inh; calls as there; inhibition, %; compound at 20 µM; confirmation average;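 mean of two retest wells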
PABP FP inh retest: further read-out of PABP FP inh, marked with its call; inhibition, %; compound at 20 µM; confirmation repeats;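 mean of two retest wells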
MT1-MMP act inh RFP: also measured in MT1-MMP act inh; calls as there; RFP signal change, %; measured here: RFP expression control read;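 0 = vehicle wells; hits needed this value within 50% of zero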
Active calls of the source: *; i = inactive; ? = inconclusive; . = not tested or not shown.

SMILES | CSC inhib | eIF4H FP inh | MT1-MMP act inh | MT1-MMP act inh RFP | PABP FP inh | Rce1 inh | Env fusion inh | UUG fidelity | others
CN(C)S(=O)(=O)N1CCc2ccc(NC(=O)C3CCCO3)cc2C1 (stereo unspecified) | . | 7 | -1 | 2 | 3 | i | -22 | 4
Fc1ccc(N2CCN(C(=S)NCc3ccco3)CC2)cc1 | . | -1 | 7 | 4 | -3 | i | 18 | -15
CCC(C)NC(=O)CSc1nnc(-c2cc(OC)c(OC)c(OC)c2)c(-c2cc(OC)c(OC)c(OC)c2)n1 (stereo unspecified) | -4 | 4 | 3 | 5 | 13 | i | -10 | 8
Cc1ccc(CN(C(=O)c2cccs2)C2CCS(=O)(=O)C2)cc1 (stereo unspecified) | -11 | 3 | -3 | -2 | 8 | i | 5 | -5
c1ccc(CN2CCC(=NNc3nc4ccccc4[nH]3)CC2)cc1 | -9 | 26 | 4 | 8 | 9 | i | 20 | -23
CCOC(=O)c1c(C)[nH]c(C(=O)Cn2nnc(-c3ccc(Cl)cc3)n2)c1C | 4 | 2 | 2 | -3 | 1 | i | 17 | -13
N#C/C(=C\c1ccc(-c2cccc([N+](=O)[O-])c2)o1)C(=O)NCCN1CCOCC1 | 0 | -8 | -1 | -3 | 14 | i | -14 | .
COCCn1ccc2c(OCC(=O)Nc3cccc(NC(C)=O)c3)cccc2c1=O | 8 | . | 5 | 1 | . | i | -43 | -7
CC(C)(C)c1ccc(S(=O)(=O)NCCc2ccncc2)cc1 | 23 | -6 | -3 | -7 | -4 | i | . | -13
CN(C)N1C(N)=C(C#N)C(c2ccccc2)C2=C1CC(C)(C)CC2=O (stereo unspecified) | -11 | -3 | 2 | 5 | -2 | i | 8 | .
O=S(=O)(c1cnc(Cl)c(Br)c1)N1CCc2ccccc21 | ? | -3 | -8 | -8 | 4 | i | 11 | -14
COC(=O)COc1ccc(S(=O)(=O)Nc2ccc(C(N)=O)cc2)cc1C | -5 | -9 | 2 | -3 | -12 | i | -29 | -16
Cc1ccc(NC(=O)CN2C(=O)N/C(=C/c3ccc(N4CCOCC4)cc3)C2=O)cc1 | 3 | -4 | 6 | 3 | 6 | i | -8 | .
CCc1ccc(N(CC(=O)NC2CC2)S(=O)(=O)c2ccc(C)cc2)cc1 | -9 | 0 | 0 | 1 | 3 | i | ? | -11
Cc1nn(C)cc1S(=O)(=O)NCc1ccccc1Cl | -1 | -9 | 0 | 1 | -2 | i | -30 | 6
Cc1ccc(NC(=O)CSCC(=O)Nc2cccc3ncccc23)cc1 | -19 | . | -13 | 1 | . | i | 33 | .
Cc1nn(-c2ccccc2C(F)(F)F)c(=O)c2noc(C)c12 | -1 | 0 | -1 | 2 | 2 | i | 5 | .
Cc1ccc(C)c(S(=O)(=O)N2CCN(C(=O)Cn3cnc4c3c(=O)n(C)c(=O)n4C)CC2)c1 | -9 | -3 | -3 | -2 | -8 | i | . | 22
Cc1ccc(N2CC(C(N)=O)CC2=O)cc1C (stereo unspecified) | -16 | -3 | 0 | 4 | -4 | i | -11 | -5
O=C(NCCCn1ccnc1)NC(C(F)(F)F)C(F)(F)F | -2 | 11 | -6 | 0 | 4 | i | -9 | -11
CC(C)[N+](C)(C)CC#CC(O)(c1ccccc1)c1ccccc1 | -8 | . | 2 | 3 | . | i | -17 | .
CCNC(=O)NC(=O)CSc1ccccc1F | . | -7 | . | . | 0 | i | . | -10
CCOc1ccc(NC(=O)NCCCn2c(C)nc3cc(C)c(C)cc32)cc1 | 3 | 4 | 2 | -3 | -2 | i | 7 | .
CC(=O)N1CCc2c(sc(NC(=O)Cc3ccc(C)cc3C)c2C#N)C1 | 7 | -2 | 2 | 2 | -6 | i | -6 | -21
CCOc1ccc2[nH]c(=O)c(CN(CCO)Cc3nnnn3CCc3ccccc3)cc2c1 | 1 | -9 | 0 | 3 | 0 | i | i | -19
COC(=O)c1cccc(Oc2nc3c(c(=O)n(C)c(=O)n3C)n2Cc2ccc(C)cc2)c1 | 4 | . | -7 | -3 | . | i | 13 | -3
COc1cc(S(=O)(=O)N2CCN(C(=O)c3cccs3)CC2)ccc1NC(C)=O | . | . | 9 | 6 | . | . | 10 | 0
CCOC(=O)Cc1csc(SCC(=O)NC2CCCC2)n1 | . | . | 3 | 3 | . | . | -4 | -21
O=C(COC(=O)C1CC2CCCC(C1)C2=O)c1cccc(Br)c1 (stereo unspecified) | . | . | 1 | 5 | . | . | -2 | 4
CC(C)(C)NC(=O)CN1C(=O)NC(c2ccccc2)(c2ccccc2)C1=O | . | -16 | 2 | 3 | 0 | i | 4 | -10
CCCCCCCN=C(C)c1ccccc1O | 0 | 105 | -1 | 1 | 5 | i | -10 | . | eIF4H FP inh retest=-7;PABP FP inh retest=9
O=C(Nc1ccccc1F)NC1CCCc2ccccc21 (stereo unspecified) | 9 | -9 | -5 | -1 | 5 | . | -4 | 1
CC(=O)c1ccc2c(c1)Nc1ccccc1S2 | -8 | 67* | 1 | 2 | 77* | i | . | .
CCOC(=O)c1c(C)oc2ccc(OC(=O)c3cccs3)cc12 | 0 | -5 | 3 | 1 | 7 | i | -24 | .
COc1ccc(OC)c2c(=O)cc(C(=O)O)[nH]c12 | -4 | -1 | 7 | 7 | 2 | i | 0 | -22
COc1ccc2c(c1)c(C(=O)N/N=C/c1ccccc1Cl)c(C)n2C | -7 | -1 | 3 | 1 | -8 | i | 6 | .
Cc1ccc(S(=O)(=O)N2[C@@H](c3ccc(Cl)cc3)C(C(=O)OC(C)(C)C)=CC[C@H]2c2ccc(Cl)c(Cl)c2)cc1 | . | . | -10 | -20 | . | . | 26 | -21
CCn1nc(NC(=O)Cc2ccc(OC)cc2)c2cc3cc(C)ccc3nc21 | -7 | -12 | 1 | 1 | 8 | i | -18 | -4
Cc1cc(/C=C2/NC(=O)NC2=O)c(C)n1-c1ccccn1 | -10 | 46 | 0 | 4 | -8 | i | -53 | -2
COc1ccccc1N1CCN(C2CCN(C3CCC(c4ccccc4)CC3)CC2)CC1 (stereo unspecified) | 46 | 5 | . | . | -4 | i | . | .

Reprinted from above, eleven compounds:
SMILES | CSC inhib | eIF4H FP inh | MT1-MMP act inh | MT1-MMP act inh RFP | PABP FP inh | Rce1 inh | Env fusion inh | UUG fidelity | others
CC(C)(C)NC(=O)CN1C(=O)NC(c2ccccc2)(c2ccccc2)C1=O | . | -16 | 2 | 3 | 0 | i | 4 | -10
CCCCCCCN=C(C)c1ccccc1O | 0 | 105 | -1 | 1 | 5 | i | -10 | . | eIF4H FP inh retest=-7;PABP FP inh retest=9
O=C(Nc1ccccc1F)NC1CCCc2ccccc21 (stereo unspecified) | 9 | -9 | -5 | -1 | 5 | . | -4 | 1
CC(=O)c1ccc2c(c1)Nc1ccccc1S2 | -8 | 67* | 1 | 2 | 77* | i | . | .
CCOC(=O)c1c(C)oc2ccc(OC(=O)c3cccs3)cc12 | 0 | -5 | 3 | 1 | 7 | i | -24 | .
COc1ccc(OC)c2c(=O)cc(C(=O)O)[nH]c12 | -4 | -1 | 7 | 7 | 2 | i | 0 | -22
COc1ccc2c(c1)c(C(=O)N/N=C/c1ccccc1Cl)c(C)n2C | -7 | -1 | 3 | 1 | -8 | i | 6 | .
Cc1ccc(S(=O)(=O)N2[C@@H](c3ccc(Cl)cc3)C(C(=O)OC(C)(C)C)=CC[C@H]2c2ccc(Cl)c(Cl)c2)cc1 | . | . | -10 | -20 | . | . | 26 | -21
CCn1nc(NC(=O)Cc2ccc(OC)cc2)c2cc3cc(C)ccc3nc21 | -7 | -12 | 1 | 1 | 8 | i | -18 | -4
Cc1cc(/C=C2/NC(=O)NC2=O)c(C)n1-c1ccccn1 | -10 | 46 | 0 | 4 | -8 | i | -53 | -2
COc1ccccc1N1CCN(C2CCN(C3CCC(c4ccccc4)CC3)CC2)CC1 (stereo unspecified) | 46 | 5 | . | . | -4 | i | . | .

Carrying on:
SMILES | CSC inhib | eIF4H FP inh | MT1-MMP act inh | MT1-MMP act inh RFP | PABP FP inh | Rce1 inh | Env fusion inh | UUG fidelity | others
O=C(C[n+]1cc(-c2ccc(F)cc2)n2c1CCC2)Nc1nc(-c2ccccc2)cs1 | -4 | -6 | -2 | 0 | -8 | i | . | -1
CC1CCN(C(=O)C2CCC(CNS(=O)(=O)c3ccc4c(c3)C(C)(C)C(=O)N4C)CC2)CC1 (stereo unspecified) | . | . | 8 | 0 | . | . | 3 | -5
O=C(NNC(=O)c1cccc(S(=O)(=O)N2CCCCC2)c1)c1ccccc1 | -11 | . | -1 | -4 | . | . | . | -15
CN1CCN(c2ccc(NC(=O)Cc3ccccc3)cc2)CC1 | -9 | -8 | -1 | 0 | 0 | i | -13 | -19
COc1ccc(-c2sc(C(=O)c3ccc(Cl)cc3Cl)cc2CC(=O)O)cc1 | 73 | -2 | -3 | -1 | 5 | i | -23 | -13
Cc1cccc(NC(=O)c2cnc3sccn3c2=O)n1 | -10 | . | 0 | 3 | . | i | -8 | -13
O=C1c2ccccc2C(=O)N1CNc1ccccc1 | -5 | 4 | 2 | 4 | 9 | i | -73 | -21
Cc1ccc(NC2=NCC(=O)N2Cc2ccc3c(c2)OCO3)c(C)c1 | -3 | 27 | 4 | 1 | 9 | i | . | -11
OCC1(CCc2ccccc2)CCN(C/C=C/c2ccccc2)CC1 | 35 | 8 | 2 | -2 | 7 | i | 1 | 6
CCN(CC)CCN(C(=O)CCOc1ccccc1)c1nc2c(F)cc(F)cc2s1 | 3 | 0 | 2 | 4 | -17 | i | 13 | -20
CC(C(=O)O)c1ccc(CC2CCCC2=O)cc1 (stereo unspecified) | -8 | . | 3 | 6 | . | i | -16 | -8
Cc1nn(CC(=O)OCC(=O)NCCc2ccc(F)cc2)c(C)c1[N+](=O)[O-] | -11 | . | 2 | 1 | . | . | . | -4
Cc1ccc(C(=O)Nc2cc(C(F)(F)F)ccc2N2CCCCC2)cc1[N+](=O)[O-] | 7 | 0 | 1 | 2 | -9 | i | . | -16
O=C(Nc1nnc(C2=COCCO2)o1)c1ccc([N+](=O)[O-])s1 | -13 | -8 | -2 | -3 | 9 | i | . | -5
COc1ccc(CCC(=O)Nc2ccc(S(=O)(=O)N3CCOCC3)cc2)cc1 | 6 | -8 | 5 | 2 | 9 | i | 0 | -6
Clc1ccc(C2=NCCN2)cc1 | 6 | -5 | 0 | 7 | -1 | i | -11 | .
COc1cc(CO)c(OC)c([N+](=O)[O-])c1 | -5 | 7 | 0 | -2 | 6 | i | 5 | -18
CCOC(=O)Cn1c(=O)oc2cc(S(=O)(=O)N3CCC(N4CCCCC4)CC3)ccc21 | 0 | -2 | -2 | 2 | 0 | i | 8 | -24
O=C(NC(N1CCCC1)C(Cl)(Cl)Cl)c1ccccc1 (stereo unspecified) | -3 | 8 | 4 | 5 | -8 | i | -44 | 10
CC(=O)N(C(C)=O)c1cccc2c(N(C(C)=O)C(C)=O)cccc12 | -5 | -10 | 2 | 5 | 4 | i | -25 | -15
O=C(NCc1ccco1)C1CCN(C(=O)c2ccc(Cl)cc2)CC1 | -14 | . | 0 | 4 | . | . | -3 | -8
COC(=O)C1=CN(Cc2ccc(OC)cc2)C=C(C(=O)OC)C1c1cc(OC)c(OC)c(OC)c1 | 5 | -4 | -5 | -7 | -4 | i | . | 0
